High-throughput results deposited in PubChem by several laboratories.
Beta apoptosis: blocks beta cell apoptosis; INS-1E cytokine-induced death, ATP luminescence, 48 h; percent of positive-control rescue, neutral wells zero; protection from apoptosis, % (no concentration beside the values); actives 0.8% (n = 300,000); AID 435005;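 active = all replicates at 75% or more, or half of them and the mean; inconclusive = half reach 75% but not the mean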;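 note: 0% = cytokine-treated negative control wells and 100% = positive control rescue; higher means more ATP so stronger rescue from cytokine killing; wells of about 40 µL received 100 nL stock; the first replicate is given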
Vif TR-FRET: HIV-1 Vif–A3G interaction blockers – biochemical, TR-FRET, GST-Vif 1-94, biotin-A3G peptide, dose response retest, primary screen (AID 1117319); TR-FRET GST-Vif / biotin-A3G peptide binding; higher % means a stronger effect; test concentration not given here; strong numbers were not always called active; one-dose inhibition, %; IC50 in µM for titrated hits; actives 0.57% (n = 260,000);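 active = above the screen mean plus three standard deviations and confirmed in dose response; inconclusive = results disagree or hit not tested in dose response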;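 note: Vif residues 1-94 fused to GST binding biotinylated APOBEC3G peptide 110-148; 0% = full assay without inhibitor and 100% = GST in place of GST-Vif; retest series ran down from 100 µM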
T cruzi repl: T. cruzi replication inhibition; T. cruzi beta-gal in NIH3T3, luminescence, 90 h; inhibition, % (no concentration beside the values); actives 1.4% (n = 300,000);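 active = mean inhibition across valid replicates above about 55%, limit read from the data; inconclusive = mean below that limit but half or more replicates reach it; inactive = mean below it, under half of replicates reach it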;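 note: signal also drops with host cell toxicity which is not excluded here; 0% = plate median of DMSO wells and 100% = zero luminescence signal; higher percent means less beta-gal luminescence so fewer parasites; stock transfer was 50 nL into about 50 µL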
RanGTP-Imp inh: disruptors of Ran-importin-beta complex formation – biochemical, FRET, CFP-Ran, YFP-importin-beta, homogeneous, primary screen; cell-free CFP-Ran/YFP-importin-beta FRET ratio; actives 1.1% (n = 300,000); inhibition, % (concentration not given with the values);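 active = most replicates above 15%; inconclusive = exactly half above 15%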;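 note: 0% = DMSO wells and 100% = Ran loaded with GDP instead of GTP; wells of about 40 µL received 100 nL stock; the first replicate is given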
Calb FLC: affects C. albicans growth with fluconazole | actives 0.57% (n = 300,000) | C. albicans CaCi-2 (fluconazole-resistant clinical isolate) + fluconazole, Alamar Blue growth, 48 h | growth inhibition, % (concentration not given with the values);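 active = most replicates above 75%; inconclusive = exactly half above 75%; inactive = most below 75%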;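 note: all wells also contain fluconazole at 8 µg/ml as a sub-toxic cotreatment; 0% = median of DMSO wells and 100% = median of geldanamycin control wells; wells of about 8 µL received 7.5 nL stock; the first replicate is given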
rRNA inh HTS: selective bacterial rRNA inhibition in E. coli. actives 1.6% (n = 350,000). E. coli WT GFP vs humanized-ribosome RFP mutants, fluorescence, 24 h; active compounds read low; DMSO median 0, no signal -100. AID 720706. GFP signal change (wild-type ribosome), % (concentration not given with the values);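 active = significant combined selectivity score with lowered wild-type GFP, culture density cut under 30%, mutant RFP and density less affected; inactive = any of these conditions unmet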; note: one replicate is shown; some compounds called inactive have numbers as strong as hits
AF4-AF9 inh: MLL-AF4/AF9 protein interaction inhibition; P42568; AlphaScreen, biotin-AF4 peptide binding to FLAG-AF9; inhibition, % at 10 µM; actives 0.47% (n = 350,000);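 active = every replicate reaching a set inhibition limit, whatever the replicate mean, cut at about 25% in these data; inconclusive = mean inhibition reaches that limit but some replicates miss it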;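 note: 0% = plate neutral control median and 100% = total signal loss; the record names both 10 and 1 µM as test concentration; the first replicate is given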
Target sequence (P42568 whole entry, looked up): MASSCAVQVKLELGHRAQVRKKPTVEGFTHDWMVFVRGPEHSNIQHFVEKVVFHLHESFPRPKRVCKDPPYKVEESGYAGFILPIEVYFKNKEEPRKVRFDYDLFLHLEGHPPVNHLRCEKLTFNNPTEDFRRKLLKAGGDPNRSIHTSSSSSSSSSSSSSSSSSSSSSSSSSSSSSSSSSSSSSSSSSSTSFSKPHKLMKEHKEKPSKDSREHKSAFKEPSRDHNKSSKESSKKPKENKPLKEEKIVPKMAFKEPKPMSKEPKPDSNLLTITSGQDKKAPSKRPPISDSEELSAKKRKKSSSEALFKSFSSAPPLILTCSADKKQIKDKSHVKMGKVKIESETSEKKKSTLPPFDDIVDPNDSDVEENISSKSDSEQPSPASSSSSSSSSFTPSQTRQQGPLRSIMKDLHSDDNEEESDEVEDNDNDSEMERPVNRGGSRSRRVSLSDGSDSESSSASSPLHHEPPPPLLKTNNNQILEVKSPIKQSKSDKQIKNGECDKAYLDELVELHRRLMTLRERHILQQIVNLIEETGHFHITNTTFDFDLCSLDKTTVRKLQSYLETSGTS
A1 inh: inhibitors of the anti-apoptotic protein A1, read as caspase activation; MEF A1-2A-BIM cells, Caspase-Glo 3/7 luminescence, 3 h; percent of clofoctol response, vehicle zero; caspase activation, % (test concentration not listed); actives 0.066% (n = 330,000);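 active = over half of replicate activation scores above 10%, or exactly half above 10 with the replicate mean above 10; inconclusive = replicate mean below 10 yet half the replicates above 10; inactive = over half of replicates below 10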;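 note: wells of about 30 µL received 50 nL stock; many hits fall short of the cut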
rRNA inh HTS OD600: also measured in rRNA inh HTS; calls as there; OD600 change, %; measured here: OD600 growth;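 optical density of the mix in the first replicate; 0 = DMSO median and -100 = no signal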
rRNA inh HTS RFP: further read-out of rRNA inh HTS, marked with its call; RFP signal change, %; measured here: RFP humanized mutant strains;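 first replicate; 0 = DMSO median and -100 = no signal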
Starred values were filed as active, the others as inactive; ? = inconclusive; nt = no result given. These rows are one share of the data; rates above refer to the full screens.

SMILES	Beta apoptosis	Vif TR-FRET	T cruzi repl	RanGTP-Imp inh	Calb FLC	rRNA inh HTS	rRNA inh HTS OD600	rRNA inh HTS RFP	AF4-AF9 inh	A1 inh
O=C(O)/C=C/c1ccc(S(=O)(=O)Nc2cccnc2)cc1	nt	nt	2	-0.5	1	16	15	-1.5	-5.5	0.4
Cc1ccc(S(=O)(=O)/C=C2\NC(=O)CS2)cc1	-7	-6%	-9	-3.4	-25	nt	nt	nt	nt	-0.2
O=C1CCCC/C1=C\Nc1ccc(Cl)cn1	-6	13%	-13	-1.9	-4	nt	nt	nt	nt	-0.4
CC(=O)c1ccc(NC(=O)C[n+]2ccc(N(C)C)cc2)cc1	-1	nt	-1	7.6	3	11	12	1.3	-5.4	2.1
COCCNC(=O)/C(C#N)=C/c1cccc(/C=C(\C#N)C(=O)NCCOC)c1	0	-2%	-21	4.5	19	-13	-13	-2.4	-8.7	0.1
Cc1ccc(S(=O)(=O)N2C(=O)CCC2C(=O)O/N=C(\N)c2cccc([N+](=O)[O-])c2)cc1 (stereo unspecified)	-3	3%	2	0.1	4	1	8	-3.1	-1.8	0.4
COc1ccc(CNC(=O)CSCc2c(F)cccc2Cl)cc1	5	-4%	-8	1.0	-4	-27*	-15*	3.9*	-30	-0.6
Cc1ccc(NC(=O)N2CCSc3ccccc32)cc1	0	5%	-4	-2.6	3	0	-1	-3.0	1.5	nt
CCOC(=O)C1CCN(C(=O)c2ccc3nc(-c4ccc(OC)cc4)c(-c4ccc(OC)cc4)nc3c2)CC1	18	-8%	23	24*	2	-3	-4	1.1	-5.6	0.0
C=CCNC(=O)CN(c1cc(Cl)ccc1OC)S(=O)(=O)c1ccc(C)c([N+](=O)[O-])c1	nt	3%	22	-0.6	-19	18	13	-3.1	0.4	-0.4
O=S(=O)(NCCc1ccccn1)c1ccc(OC(F)(F)F)cc1	-3	4%	6	-2.6	21	5	8	-0.4	-2.4	0.4
Cc1cc(=O)[nH]c(-c2cccs2)n1	-9	-5%	11	-4.2	-1	0	2	-2.5	1.0	-0.6
CCOC(=O)/C=c1\sc2n(c1=O)CCN=2	-3	?	nt	8.5	12	nt	nt	nt	nt	-1.4
Cc1cc2n(n1)SC(Nc1cccc3ccccc13)N2 (stereo unspecified)	2	-5%	-1	4.1	-13	nt	nt	nt	nt	-0.2
CC(=O)Nc1ccc(NC(=O)CSC2=NCCS2)cc1	nt	-4%	-17	-0.8	4	nt	nt	nt	nt	nt
COc1cccc(C2C=C(c3ccc(OC)cc3OC)Nc3nnnn32)c1 (stereo unspecified)	3	-3%	9	-71	25	nt	nt	nt	nt	-0.2
O=C(NN1C(=O)NC2(CCCCC2)C1=O)c1ccc(-c2ccc([N+](=O)[O-])cc2)o1	1	nt	-5	-2.8	5	-14	-4	-2.3	0.7	0.9
COc1ccc(-c2nnc(NC(=O)C3CCCO3)s2)cc1 (stereo unspecified)	-6	6%	-7	-0.9	7	nt	nt	nt	nt	-4.5
C=CCNC(=S)NNC(=O)COc1c(Cl)cc(Cl)cc1Cl	-8	nt	-8	1.5	-1	nt	nt	nt	nt	1.2
CCOC(=O)N1CCN(C(=O)Nc2ccc3nccnc3c2)CC1	nt	-3%	-11	3.5	8	nt	nt	nt	nt	0.0
Cc1ccc(C(NC(=O)NC(C)c2ccccc2)C(Cl)(Cl)Cl)cc1F (stereo unspecified)	17	-4%	38	0.8	-10	nt	nt	nt	nt	-0.2
O=C(O)c1nn(CC(=O)N2CCCCCC2)c(=O)c2ccccc12	-10	-1%	5	0.5	-11	8	2	-1.3	-0.8	-0.2
O=C(OCc1nnc(-c2ccccc2)o1)c1cccc(-n2cnnn2)c1	-4	nt	-7	-4.5	nt	1	3	8.7	0.8	0.1
CC(=O)C1=C(C)NC2=C(C(=O)CC(C)(C)C2)C1C (stereo unspecified)	-5	1%	-4	-4.4	4	10	19	-1.7	0.0	1.1
COc1ccc(S(=O)(=O)N2CCOCC2)cc1NC(=O)c1cccs1	1	-19%	nt	nt	nt	1	-4	3.5	-0.8	-0.6
Cc1ccc(C2(C)NC(=O)N(CC(=O)N(C)CC(=O)Nc3cccc(F)c3)C2=O)cc1 (stereo unspecified)	0	7%	nt	nt	nt	nt	nt	nt	0.0	-0.5
CCOC(=O)c1cnc2c(OC)cccc2c1NCc1cccnc1	-6	nt	6	0.6	-29	-6	0	1.3	0.2	-0.2
CCCOC(=S)Nc1ccccc1	-12	5%	-9	2.4	-3	nt	nt	nt	nt	-0.5
Clc1ccc(N2CCN(c3cnc4ccccc4n3)CC2)cc1	-8	15%	19	-3.1	4	nt	nt	nt	nt	0.1
Nc1c2c(nc3ccc(Br)cc13)N(C1CCCCC1)CC2	19	3%	30	9.5	21	nt	nt	nt	nt	0.0
COc1cc(OC)c(C2SCCS2)c(OC)c1	-4	-7%	3	-2.3	-2	nt	nt	nt	nt	0.4
CC(C)Oc1ccc(C(=O)Nc2ccc(NC(=O)c3ccco3)c(Cl)c2)cc1	-3	-4%	8	2.5	10	nt	nt	nt	nt	-0.1
CCOC(=O)C1CCN(c2nc(N)c3c(N)nc(SCC(=O)O)cc3c2C#N)CC1	nt	nt	-5	-8.0	2	12	6	9.4	1.0	nt
N#Cc1ccc[n+](CC(=O)c2ccc(NC(=O)c3ccccc3)cc2)c1	-10	-14%	-11	3.2	-3	5	-2	-0.1	2.0	-0.8
CCc1cccc(NS(=O)(=O)c2c(C)nc3sc(CC)nn3c2=O)c1	-8	nt	nt	nt	nt	-5	-10	1.8	-2.0	0.1
CCCn1c(SCC(=O)OCc2ccccc2)nc2c1c(=O)n(C)c(=O)n2C	-7	32%	-32	-2.4	-1	nt	nt	nt	nt	-0.6
O=C(COC(=O)Cn1cnc2ccccc21)Nc1ccccc1C(F)(F)F	-2	nt	nt	nt	nt	12	4	-0.6	-1.3	0.9
CCOC(=O)C1(CCOc2ccccc2)CCN(CC=C(C)C)CC1	-3	nt	-4	1.7	7	6	-1	-0.8	-3.3	-0.2
Cc1cc(S(=O)(=O)N2CCOCC2)ccc1OCC(=O)Nc1cccc(F)c1	nt	nt	11	-1.0	-25	-5	1	-0.6	-2.9	0.9
CCc1nn(CCCC(=O)Nc2ccc(C)cc2C)c(=O)c2cc3occc3n12	1	nt	9	-1.5	-3	-2	-10	6.1	-1.9	-0.8
c1cncc(-c2nc(N3CCOCC3)c3c4c(sc3n2)CCC4)c1	6	nt	15	2.3	5	10	2	1.4	4.7	0.5
Cc1[nH]nc(-c2ccc(O)cc2O)c1-c1nc2ccccc2s1	nt	25%	17	3.6	?	-58	-77	-22	6.2	0.9
O=C(Cn1cnc2c(nnn2Cc2ccc(F)cc2)c1=O)NCc1ccc2c(c1)OCO2	6	4%	16	2.7	-12	nt	nt	nt	nt	-0.5
N#Cc1cc([N+](=O)[O-])ccc1N1CCN(c2ccccc2O)CC1	4	-9%	3	1.4	0	-24*	-8.9*	-2.1*	10	?
COc1cc(/C=N/NC(=O)CCN2CCN(C)CC2)cc2c1OCO2	-5	nt	1	-0.3	0	12	11	2.4	-0.7	0.4
COc1ccc(C(=O)NC2CCN(C(=S)NCCc3ccccc3)CC2)cc1	0	-6%	-19	-5.5	-11	2	2	1.3	-3.8	1.3
CC(NC(=O)C1CCN(c2nnc(N3CCCC3=O)s2)CC1)c1ccccc1 (stereo unspecified)	2	nt	-5	0.1	-12	-5	8	4.4	-1.8	0.2
O=C(NCc1ccc(F)cc1)C1CCCN1C(=O)Nc1ccccc1 (stereo unspecified)	-3	nt	-12	9.1	-10	1	12	2.2	-0.9	0.0
COc1cc(C2NC(=O)NC(C)=C2C(C)=O)ccc1O (stereo unspecified)	2	nt	-5	-1.5	5	1	-1	-4.8	0.2	0.1
CCCOc1ccc(-c2nc(N3CCN(C)CC3)c3ccccc3n2)cc1	8	-9%	48	-4.4	-24	-59	-82	-17	9.5	-0.4
Cc1cc(NC(=O)c2ccoc2C)ccc1Br	11	-5%	nt	nt	nt	-10	-18	-1.8	1.5	-16
Cc1cc(OCCn2ccnc2)cc(C(C)C)c1	-12	4%	16	1.9	-7	2	-4	0.9	5.5	0.3
Cc1nc(SCc2ccc([N+](=O)[O-])cc2)nc2ccccc12	-5	3%	28	-5.2	-17	nt	nt	nt	nt	-0.3
Cc1ccc(C)c(S(=O)(=O)N2CCN(C(=O)CCc3c[nH]c4ccccc34)CC2)c1	7	-2%	nt	nt	nt	nt	nt	nt	-1.4	0.8
Cc1cc(Br)ccc1NC(=O)CN(C)Cc1cccs1	-1	nt	21	?	-8	-36	-58	-10	-4.0	1.3
CC(C)C(=O)NNC(=O)c1csc(CS(=O)(=O)c2ccc(Cl)cc2)n1	-1	1%	-9	-1.8	3	2	2	-0.1	1.9	0.1
CCOC(=O)c1cc(C(=O)Nc2ccc(S(=O)(=O)Nc3ccc(OC)cc3)cc2)nn1C	nt	11%	10	1.9	6	-6	-13	-0.8	1.1	?
Cc1[nH]ccc(=O)c1Cc1c(Cl)cccc1Cl	-2	nt	10	-2.2	-4	-3	-5	-3.6	-0.5	0.4
O=C(CCC(=O)NNC(=O)c1ccc(Cl)cc1Cl)NCc1ccccc1	4	?	nt	nt	nt	-1	14	-2.8	-6.2	-0.1
CC1=CSC2=NS(=O)(=O)CCN12	10	4%	-22	4.1	-2	4	2	-6.1	-31	0.8
(more compounds)
SMILES	Beta apoptosis	Vif TR-FRET	T cruzi repl	RanGTP-Imp inh	Calb FLC	rRNA inh HTS	rRNA inh HTS OD600	rRNA inh HTS RFP	AF4-AF9 inh	A1 inh
CC(C)OCCCNC(=O)C1CCC(CNS(=O)(=O)c2cccc3nsnc23)CC1 (stereo unspecified)	-2	nt	-2	2.3	-8	nt	nt	nt	nt	0.3
Cc1cc(N2CCN(S(=O)(=O)c3ccc(Cl)c(Cl)c3)CC2)c2ccccc2n1	4	nt	nt	-0.8	21	-49	-62	-15	4.4	0.9
COc1ccc(C(C)=O)cc1CN1C(=O)NC2(CCCCCC2)C1=O	-3	5%	-9	-2.2	-44	nt	nt	nt	nt	0.2
Cc1ccc(C(=O)O)cc1N1C(=O)c2cccc3c([N+](=O)[O-])ccc(c23)C1=O	3	nt	18	-18	5	93	-3	8.6	-13	0.1
COc1ccc(CN=C2NN=C(c3cccc(OC)c3)CS2)cc1	1	-1%	-4	1.6	-15	3	-2	2.2	2.5	-1.2
O=[N+]([O-])c1ccc(/C=N/n2c(COc3ccccc3)n[nH]c2=S)cc1	9	0%	-4	-4.0	8	nt	nt	nt	nt	0.7
Cc1cccc(N2C(=O)c3cccnc3C2=O)c1	-2	3%	-10	5.9	2	nt	nt	nt	nt	0.1
Cc1ccc(Nc2nc3ccc(Cl)cc3n3cnnc23)cc1F	1	-2%	21	-1.5	46	12	16	-0.6	-2.3	-0.4
Cn1cc(CNCC2CCCO2)c(-c2ccc(Oc3ccccc3)cc2)n1 (stereo unspecified)	-3	2%	19	0.9	-4	2	-9	5.2	-1.2	0.4
CC(C)C[C@H](NC(=O)N1CC(=O)Nc2ccccc21)C(=O)N[C@@H](Cc1ccccc1)C(=O)O	-5	nt	-4	9.3	2	nt	nt	nt	-2.0	1.1
